Yeast UUG start = modulators of start codon recognition fidelity in yeast; S. cerevisiae UUG-firefly luciferase reporter, luminescence/redox ratio; AID 602363; activity score, % at 18.7 µM; 350,000 compounds, 0.13% hits;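 active = replicate mean at a twofold rise or more, about +100% in these data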;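 note: firefly luciferase made from a UUG start codon reports start codon fidelity; reporter light over untreated wells divided by growth signal over untreated wells; some hits fall short of that in this replicate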
Env fusion inh = blocks HIV Env-driven cell-cell fusion. 360,000 compounds, 1.1% hits. AID 651610. HeLa-JRFL Env/CEM21 cell fusion, luciferase. inhibition, % at 12.3 µM;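 active = mean replicate inhibition score of at least 50 and every replicate individually at or above 50; inconclusive = only one of the two criteria met; inactive = mean below 50 and not all replicates reaching 50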;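 note: 0% = plate neutral controls and 100% = maraviroc near 300 nM; one replicate is shown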
MT1-MMP act inh = MT1-MMP (human) activation inhibition; P50281; HT1080 RFP-PRO-GFP cells, GFP/RFP ratio fluorescence, overnight; percent of plate control window, DMSO zero; GFP/RFP ratio change, % at 20 µM; 360,000 compounds, 0.061% hits;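 active = GFP/RFP ratio change of at least 30% with cell ATP level not reduced by more than half and red fluorescence within 50% of control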; note: strong numbers were not always called active
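Compound: 20 µM single dose, 1% DMSO / System: HT1080 RFP-PRO-GFP cells / Controls: DMSO and RFP-L50D-GFP cell wells / Read-out basis: GFP/RFP fluorescence ratio / Schedule: overnight compound exposure at 37 °C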
CSC inhib = blocks cancer stem cells; cancer stem cell-like cells viability, luminescence; inhibition, % at 7.5 µM; 300,000 compounds, 1.1% hits; AID 2717;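 active = mean at 75% or more and at least half the replicates too; inconclusive = mean and replicates disagree; tested in HMLE shEcad cells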;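 note: 0% = median of negative and 100% = median of positive control wells; the first replicate is given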
eIF4H inh = inhibitors of RNA binding by human eIF4H; eIF4H fluorescence polarization binding assay; Q15056; AID 2012; inhibition, % at 35 µM; 290,000 compounds, 0.94% hits;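 active = 50% or more with normal probe brightness, or confirmed in later tests; inconclusive = above 50% with abnormal brightness, or retests that disagree; inactive = below 50% or failed in later tests; about a fifth of its hits are not listed in these tables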;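 note: calls also rest on retests at 20 µM and on dose response follow-up; 0% = protein and probe with vehicle and 100% = probe without protein; strong numbers were not always called active; many hits fall short of the cut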
PABP polyA inh = blocks human PABP binding to poly(A) RNA | fluorescence polarization | 290,000 compounds, 1% hits | P11940 | inhibition, % at 35 µM;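 active = 50% or more with normal probe brightness, or confirmed in later tests; inconclusive = above 50% with abnormal brightness, or retests that disagree; inactive = below 50% or failed in later tests; about a fifth of its hits are not listed in these tables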;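 note: calls also rest on retests at 20 µM and on dose response follow-up; controls were probe without protein and protein plus probe with vehicle; some compounds called inactive have numbers as strong as hits; many hits fall short of the cut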
Rce1 inh = yeast Ras-converting enzyme inhibition | yeast membranes, quenched prenylated peptide cleavage fluorescence | calls only | 290,000 compounds, 0.27% hits;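 active = fall in fluorescence gain of 50% or more versus controls, with final raw signal at or below 3038400; inconclusive = same 50% fall but final raw signal above 3038400; inactive = fall in fluorescence gain under 50%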;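 note: plate controls were neutral control wells for no effect and wells lacking membranes for full effect; tested at 10 µM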
Target sequence (Q03530 whole entry, looked up): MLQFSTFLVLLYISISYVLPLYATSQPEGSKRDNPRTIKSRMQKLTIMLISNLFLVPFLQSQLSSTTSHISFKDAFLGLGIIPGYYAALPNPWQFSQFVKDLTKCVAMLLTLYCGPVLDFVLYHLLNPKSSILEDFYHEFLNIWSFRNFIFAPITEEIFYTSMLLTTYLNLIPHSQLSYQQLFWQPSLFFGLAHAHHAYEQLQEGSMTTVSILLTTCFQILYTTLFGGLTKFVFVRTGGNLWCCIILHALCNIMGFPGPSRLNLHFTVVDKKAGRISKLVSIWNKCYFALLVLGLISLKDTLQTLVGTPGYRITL
eIF4H inh retest = further read-out of eIF4H inh, marked with its call; inhibition, %; compound at 20 µM; confirmation average;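 mean of two retest wells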
PABP polyA inh retest = further read-out of PABP polyA inh, marked with its call; inhibition, %; compound at 20 µM; confirmation repeats;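 mean of two retest wells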
MT1-MMP act inh RFP = second read-out of MT1-MMP act inh, no call of its own (marks repeat the call); RFP signal change, %; measured here: RFP expression control read;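 0 = vehicle wells; hits needed this value within 50% of zero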
An asterisk follows results filed as active; i = inactive; ? = inconclusive; nt = no result given.

SMILES	Yeast UUG start	Env fusion inh	MT1-MMP act inh	MT1-MMP act inh RFP	CSC inhib	eIF4H inh	PABP polyA inh	Rce1 inh	others
COc1ccc(N2CCN(C(=O)c3ccc(C)cc3)CC2)c([N+](=O)[O-])c1	nt	-11.2	4.4	-1.6	-10.8	4.2	-2.5	i
CC1C(=O)N2CCCc3cc(NC(=O)C(=O)NCCc4ccccc4)cc1c32 (stereo not given)	-6.3	0.4	14.1	3.3	-0.9	nt	nt	i
CCN(CC)CCCNc1ncnc2scc(-c3ccc(F)cc3)c12	-14.1	-5.1	-13.2	-2.8	-3.9	5.3	-3.9	i
C/C(Cn1nnc2ccccc21)=N\NC(=O)c1ccc(Br)cc1	nt	-11.7	-0.6	0.9	3.8	1.1	-0.1	i
C=CCOC(=O)C1=C(C)OC(N)=C(C#N)C1c1ccoc1 (stereo not given)	-5.2	-55.7	-106.4	1.5	4.4	101.7*	88.1	i	eIF4H inh retest=72.1*;PABP polyA inh retest=37.2
CC(C)[C@H](NC(=O)C1CCCC1)c1nc2ccccc2[nH]1	nt	-3.0	-3.1	-6.3	-0.8	3.7	-2.3	i
CC(C)C[C@H](NC(=O)c1[nH]cnc1C(=O)N[C@@H](C)c1ccccc1)C(=O)OCc1ccccc1	-20.2	nt	-3.4	-18.1	0.3	12.3	0.7	i
Cc1ccc(N(C(=O)c2ccco2)C(C(=O)NC2CCCC2)c2ccco2)c(C)c1 (stereo not given)	-9.8	23.9	-2.5	0.3	-14.9	-6.1	-7.7	i
Cn1c(CCN2CCOCC2)nc2cc(NC(=O)COc3ccc([N+](=O)[O-])cc3)ccc21	nt	-2.4	-1.6	-0.9	4.0	-7.3	4.3	i
O=C(Nc1ccc(F)cc1Cl)c1ccc2c(=O)n3c(nc2c1)CCC3	14.8	-47.3	4.3	4.7	11.2	nt	nt	i
CN(CC(=O)Nc1ccccc1Br)C(=O)c1cccc(S(=O)(=O)NCc2ccccc2)c1	-6.2	12.5	3.9	0.2	-11.1	nt	nt	i
Cc1cccc(C)c1NC(=O)COC(=O)c1ccc(N2CCCC2)c([N+](=O)[O-])c1	nt	-8.4	-2.4	-2.9	-7.6	4.4	0.0	i
CCOC(=O)C1C(c2ccccc2Cl)NC(=O)N(C)C1(O)C(F)(F)F (stereo not given)	0.1	nt	0.2	0.3	3.1	3.7	-1.7	i
O=C(NCc1ccc2c(c1)OCO2)C1CCCN1C(=O)Nc1ccc(Cl)cc1 (stereo not given)	-13.7	-5.6	-2.1	-2.2	-3.3	3.8	-7.6	i
O=C(CSc1nc2ccccc2s1)Nc1ccc(Cl)c(C(=O)O)c1	nt	11.0	-1.5	2.1	-2.5	5.4	10.8	i
CCc1nc(CN2CCN(c3ccc(C(F)(F)F)cn3)CC2)c(C)[nH]1	-16.7	11.3	3.2	-10.3	73.4	6.5	-3.8	i
COc1ccc(S(=O)(=O)Nc2cccc(F)c2C)cc1C(=O)N1CCOCC1	nt	3.2	1.2	5.7	-8.0	0.1	3.5	i
CC(=O)Oc1ccc(Cn2c(C)c(C(=O)NCc3cccc(C(F)(F)F)c3)sc2=O)cc1	-20.3	5.2	3.9	-15.5	nt	nt	nt	nt
O=C(COc1ccc(Cl)cc1)N1CCN(c2cccc(C(F)(F)F)c2)CC1	nt	nt	4.9	-2.7	-0.9	0.6	-7.0	i
CC1=C(C(=O)OC(C)C)C(c2ccc(F)cc2)NC(=O)N1 (stereo not given)	-12.2	-3.5	3.4	7.0	2.9	-4.7	-7.0	i
CCOC(=O)/C(C#N)=C\c1c(OCC)n(CC)c2ccccc12	-3.9	35.4	-0.7	-10.2	5.5	-5.4	-7.7	i
COc1ccc(CN=CC2=C(O)CNC2=O)cc1OC	-5.9	nt	-6.4	-0.5	-0.1	-4.2	-6.3	i
O=C(CSCc1ccc(F)cc1)NCc1ccc(F)cc1	nt	-3.7	2.3	0.3	-6.2	-3.1	?	i
CC(=O)N/C(=C/c1ccc(OS(=O)(=O)c2ccc(C)cc2)cc1)C(=O)Nc1ccc(C(=O)O)cc1	0.4	10.4	0.0	1.2	-0.1	-6.9	3.0	i
CC(=O)N1CCc2cc(C(=O)CN3CCC(C)CC3)ccc21	20.0	-44.7	0.8	6.1	9.2	1.5	0.2	i
Cc1ccc(CCNC(=O)C2CCN(C(=O)N(C)C)CC2)cc1	-8.6	nt	3.3	-0.3	-17.1	1.8	4.3	i
COCc1cc(N2CCOCC2)nc(-c2ccccc2)n1	nt	9.6	-5.1	-2.7	-0.8	6.8	-0.8	i
O=C(N/N=C/c1ccco1)c1cc(-c2ccc(Cl)cc2)n[nH]1	nt	-2.9	4.6	3.6	2.4	4.6	12.4	i
CCN1CCN(CCCOc2ccccc2-c2ccccc2)CC1	nt	5.9	1.7	4.4	5.1	18.9	8.4	i
CC1=NN(C(=O)c2ccccc2C)C(O)(c2ccc(Cl)cc2)C1 (stereo not given)	-5.4	-4.4	3.1	3.1	-13.2	5.0	35.8	i
CCCn1c(CNC(=O)Cc2ccccc2)nc2ccccc21	-34.9	-83.1	-1.7	4.4	-11.7	-9.2	-3.0	i
NNc1nc(-c2ccccc2Cl)nc2ccccc12	-3.2	-7.3	-1.0	0.4	-4.2	-14.3	2.2	i
CCOc1cc(CNC(=O)CCCn2c(=O)c3cccn3c3cccnc32)cc(OCC)c1OCC	5.4	3.5	-2.6	-4.2	-4.3	6.6	-3.5	i
CCCC(=O)Nc1ccc(C(=O)NNC(=O)COc2ccc(Br)c(C)c2)cc1	nt	nt	-1.1	4.4	-2.4	-10.1	-7.8	i
Cc1ccccc1Cc1c(C)nc2nc(SCC(=O)NCc3ccco3)nn2c1C	-3.0	15.6	1.1	3.8	-10.3	-6.4	-1.5	i
COc1ccc(-c2nnc(Nc3ccc(CC(N)=O)cc3)c3ccccc23)cc1	nt	-2.9	8.5	1.5	nt	0.1	-1.2	i
CC(=O)c1ccc(S(=O)(=O)N2CCN(S(=O)(=O)c3ccccc3C(F)(F)F)CC2)cc1	-10.7	15.2	-0.3	1.2	-17.3	5.7	5.7	i
COC(=O)COc1ccc(S(=O)(=O)N2CCN(c3ccc(F)cc3)CC2)cc1	-1.4	nt	1.5	6.7	-6.4	-7.7	-8.5	i
COc1ccc2[nH]c3c(c2c1)CCN1C(=O)C(CC(=O)NCc2cccc(C(F)(F)F)c2)C[C@H](C(=O)N2CCCCC2)[C@@]31C (stereo not given in full)	-14.7	-43.9	-10.1	-18.7	nt	nt	nt	nt
CCCCC(=O)Nc1cccc(NC(=S)NC(=O)C(C)C)c1	-12.7	8.2	3.0	2.1	-9.6	-0.8	49.8	i
O=C(CSc1ncnc2nc[nH]c12)N1CCN(c2ccc(Cl)cc2)CC1	-17.7	41.9	0.7	-10.9	6.1	1.2	-2.4	nt
COc1ccc(C(=O)CSc2nnc(-c3ccccn3)n2Cc2ccco2)cc1	nt	-42.4	-1.1	-2.1	nt	7.0	2.1	i
Nc1nc(NCC(=O)O)nc(NC2CCCCC2)c1[N+](=O)[O-]	13.6	3.6	1.2	1.1	2.9	-7.9	-1.1	i
O=C(NCc1cccnc1)c1cc(C2CCCCN2S(=O)(=O)c2cccc3cccnc23)on1 (stereo not given)	9.6	-13.1	-1.6	-6.1	nt	nt	nt	nt
Cc1ccc(-c2cc(-c3ccc(F)cc3)nc(N)c2C#N)o1	-0.7	nt	-20.5	0.7	31.3	25.2	19.6	i
CCCCOC(=O)NC1(C)CCS(=O)(=O)C1 (stereo not given)	nt	nt	2.0	2.1	-14.6	-10.1	12.0	i
Nc1ccc(C(=O)Nc2ccco2)cc1	nt	-70.4	-4.3	-1.7	7.7	0.0	52.8	i	eIF4H inh retest=3.2;PABP polyA inh retest=7.5
O=C(CNC(=O)c1cccc(F)c1)N/N=C/C=C/c1ccccc1	nt	-7.5	-1.5	-3.6	15.1	-5.1	-4.5	i
Cc1cccc(OCC(=O)NCCCNC(=O)c2ccc(C)nc2)c1	-8.9	12.3	-1.2	1.7	2.2	-5.5	6.3	i
CC(C1CC1)N(Cc1ccccc1)C(=S)Nc1cccc(C(F)(F)F)c1 (stereo not given)	34.7	nt	15.0	-1.4	31.6	-2.2	6.0	i

As a working copy, part of the list above.
SMILES	Yeast UUG start	Env fusion inh	MT1-MMP act inh	MT1-MMP act inh RFP	CSC inhib	eIF4H inh	PABP polyA inh	Rce1 inh	others
O=C(CSc1ncnc2nc[nH]c12)N1CCN(c2ccc(Cl)cc2)CC1	-17.7	41.9	0.7	-10.9	6.1	1.2	-2.4	nt
COc1ccc(C(=O)CSc2nnc(-c3ccccn3)n2Cc2ccco2)cc1	nt	-42.4	-1.1	-2.1	nt	7.0	2.1	i
Nc1nc(NCC(=O)O)nc(NC2CCCCC2)c1[N+](=O)[O-]	13.6	3.6	1.2	1.1	2.9	-7.9	-1.1	i
O=C(NCc1cccnc1)c1cc(C2CCCCN2S(=O)(=O)c2cccc3cccnc23)on1 (stereo not given)	9.6	-13.1	-1.6	-6.1	nt	nt	nt	nt
Cc1ccc(-c2cc(-c3ccc(F)cc3)nc(N)c2C#N)o1	-0.7	nt	-20.5	0.7	31.3	25.2	19.6	i

Carrying on.
SMILES	Yeast UUG start	Env fusion inh	MT1-MMP act inh	MT1-MMP act inh RFP	CSC inhib	eIF4H inh	PABP polyA inh	Rce1 inh	others
COc1ccc(Oc2ccccc2/C=N/O)cc1	-8.0	nt	-5.9	-9.0	-4.9	-3.0	-5.0	i
COCCN1C(=O)C(=O)/C(=C(/O)c2ccc3c(c2)OCCO3)C1c1ccc(C(=O)OC)cc1 (stereo not given)	-18.1	nt	2.1	1.9	16.5	-7.5	1.2	i
O=C(NC1CCCC1)C1CCN(C(=O)c2ccc(-c3ccccc3)cc2)CC1	nt	5.1	4.3	-0.1	-38.4	-3.5	-1.5	i
Cc1ccc(NN2C(=O)C=CC2=O)cc1	nt	13.7	2.1	2.9	-2.8	4.1	-2.0	i
O=C(NCC1CCCO1)c1ccc(NS(=O)(=O)c2cccc([N+](=O)[O-])c2)cc1 (stereo not given)	-11.6	5.1	0.7	-0.3	-15.2	-4.4	-6.6	i
O=C(Nc1ccccc1F)c1cc2c(s1)-c1ccccc1S(=O)(=O)C2	nt	19.9	1.1	-4.1	-9.1	-1.9	8.8	i
CCOC(=O)N1CCc2c(sc3nc(SC(C)C)n(N)c(=O)c23)C1	nt	8.8	-1.8	-10.7	22.7	4.1	10.7	i
O=C(NC1CCS(=O)(=O)C1)/C(=C\c1ccco1)NC(=O)c1ccccc1 (stereo not given)	-1.2	-1.2	-2.4	2.9	nt	-2.7	6.3	i
COc1ccccc1NC(=O)COC(=O)Cn1c(C)csc1=O	-15.5	2.8	-0.9	1.8	nt	nt	nt	nt
COC(=O)c1cccc(Nc2cc(C)nc(-c3ccccc3O)n2)c1	nt	40.1	5.4	-2.1	?	-0.4	26.0	i
COc1cc(CCC(=O)N2CC(C)OC(C)C2)cc(OC)c1OC (stereo not given)	-10.6	?	-0.9	3.4	-1.1	-5.9	-2.5	i
CC1=C(C(=O)Nc2ccccc2)C(c2ccco2)NC(=O)N1 (stereo not given)	-9.5	-0.2	-4.4	0.4	-0.6	nt	nt	i
CCn1nnc(NC(=S)NC(=O)c2ccc(-c3cccc(Cl)c3)o2)n1	-9.6	3.3	3.1	1.3	6.5	-12.0	-3.8	i

High-throughput results: PubChem, several laboratories

The list is partial; rates above refer to the full screens.
